Screens deposited in PubChem by several laboratories.
RN4220 kill – S. aureus RN4220 growth inhibition | OD600, 16 h | inhibition, % (no concentration beside the values) | 0.33% of 330,000 active | AID 1259311;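 active = z-score of -3 or lower and OD600 up to 0.18 on both plates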;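 note: plate controls were untreated cells for no effect and reference antibiotic for full effect; stock transfer was 100 nL into about 80 µL; one replicate is shown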
BJeLR viability – kills HRASV12-expressing BJeLR cells | inhibition, % (test concentration not listed) | 0.17% of 300,000 active | BJeLR (HRASV12) viability, CellTiter-Glo ATP luminescence, 48 h; reference of the scale not given here;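 active = replicate mean above 50%; inconclusive = above 50% but judged a plate artefact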;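 note: 50 nL library stock added to about 25 µL; numbers are from one replicate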
Sa ugtP lethal – compounds lethal to S. aureus RN4220 ugtP deletion mutant; AID 1259309; 0.54% of 330,000 active; OD600 growth, 16 h; some inactives read as strong as hits; growth inhibition, % (test concentration not listed);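 active = z-score under -3 and OD600 up to 0.15 on both plates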;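 note: plate controls were untreated wells for no effect and antibiotic for full effect; wells of about 80 µL received 100 nL stock; the first replicate is given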
Mtb hypoxia inh – Mtb hypoxia fluorescent reporter inhibition. 0.1% of 300,000 active. fluorescence inhibition, % (test concentration not listed). M. tuberculosis hypoxia-regulated fluorescent reporter, fluorescence;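 active = 35 to 45% if threefold the growth effect, above 45% if 1.5-fold the growth effect; inactive = the rest, general growth blockers included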;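 note: wells of about 50 µL received 100 nL stock; 0% = vehicle wells and 100% = reference inhibitor wells; whole bacteria with a GFP reporter of the hypoxia response; strong numbers were not always called active; many hits fall short of the cut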
PrP 5UTR inh – suppresses PrP 5' UTR mRNA reporter expression | cell-based PrP 5' UTR mRNA reporter, plate reader | 0.35% of 340,000 active | inhibition, % (concentration not given with the values);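 active = every replicate at 50% or more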;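 note: 0 = median of the neutral control wells; tested in H4 reporter cells; numbers are from one replicate; inactives centre near -14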
Bead autofluor – counter-screen for toxin protease inhibitors: compound fluorescence; fluorescence intensity (no concentration beside the values); 3.1% of 360,000 active; compound autofluorescence counterscreen, microsphere flow cytometry; hits give high values; AID 624483;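 active = at least 3 SD above the mean of all compounds, about 16000 in these data; inconclusive = too few beads counted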;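 note: 100 nL of 1 mM stock went into each well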
Mtb hypoxia inh growth – also measured in Mtb hypoxia inh; calls as there; growth inhibition, %; measured here: M. tuberculosis growth (absorbance);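 0% = vehicle and 100% = reference antibiotic; read after six days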
The depositor's hits bear a star; ? = inconclusive; . = no result given.

SMILES	RN4220 kill	BJeLR viability	Sa ugtP lethal	Mtb hypoxia inh	Mtb hypoxia inh growth	PrP 5UTR inh	Bead autofluor
COc1ccc(-c2c(C#N)c(SCc3c(C)noc3C)nc3c2C(=O)CC(C)(C)C3)cc1	.	-8	.	.	.	-25	10740
O=C(COc1ccc(F)cc1)Nc1nc2c(s1)CCCC2	0.6	2	-12	-3	-5	-45	6374
COc1ccc(C(=O)CC(=O)c2ccc(F)cc2)cc1	3.0	-6	3	16	9	.	6190
COc1ccccc1NS(=O)(=O)c1cccc(NC(=O)c2cc3ccccc3oc2=O)c1	1.7	3	-5	-4	-2	-81	4053
COc1ccccc1CNCc1cccs1	1.6	10	-6	.	.	-26	4979
CCOC(=O)C1CCCN(C(=O)CSc2nnc3nc(C)cc(C)n23)C1 (configuration not stated)	-0.2	.	0	.	.	-20	2908
Cc1cc(C)c2cc(CN(CC3CCCO3)S(=O)(=O)c3ccc4c(c3)OCCO4)c(=O)[nH]c2c1 (configuration not stated)	-2.3	9	-9	-7	4	3	10358
Cc1nn(-c2ccccc2)c(C)c1NC(=O)COc1ccc(Br)cc1Cl	10	8	4	14	7	-42	9800
Cc1cccc(C)c1NC(=S)N(CCc1ccncc1)C(C)C	5.3	8	8	9	10	-18	4507
O=C(N/C(=C\c1ccco1)C(=O)N1CCOCC1)c1ccco1	4.5	6	7	20	-5	-23	3244
CC1(C)Cc2c(sc(NC(=O)c3ccc(Br)o3)c2C#N)CO1	2.4	-1	13	5	-5	-98	6626
COc1ccc(C=NNC(=O)Cn2nc([N+](=O)[O-])cc2C)c(OC)c1OC	2.6	.	12	-1	0	.	.
COc1ccc([N+](=O)[O-])cc1NC(=O)COC(=O)C=C(C)C	7.7	.	3	12	5	-2	4395
CCn1c(SC(C)C(=O)Nc2ccc3c(c2)OCCO3)nnc1C1CC1 (configuration not stated)	-2.3	.	-3	-11	1	-1	8080
COc1ccccc1NC(=O)CSc1n[nH]c(Cc2ccccc2)n1	2.4	-1	1	0	10	-11	6057
COc1ccc2c(=O)c(-c3ccccc3C)c(C)oc2c1	0.5	8	-2	.	.	-31	2358
O=C(COC(=O)[C@H](Cc1ccccc1)NC(=O)c1cccs1)NC1CCCCC1	3.9	11	3	8	5	-2	2648
COc1ccc2[nH]c(=O)c(CN(CCO)S(=O)(=O)c3ccc4c(c3)OCCO4)cc2c1	3.0	8	1	-4	2	-38	10395
O=C(CSc1nnc2ccc(-c3cccnc3)nn12)Nc1ccccc1F	0.7	3	3	-6	0	-7	5844
Cc1c(Br)cc(C(=O)NCc2ccco2)c(C)c1C	6.8	-3	3	.	.	-31	6073
Cc1cc(Nc2cccc(C(F)(F)F)c2)n2nc(C)nc2n1	-3.6	-2	-3	.	.	-17	2724
CCc1ccc(Nc2oc(C)cc(=O)c2C(C)=O)cc1	5.0	-3	2	.	.	-27	4895
Cc1ccc(-c2c(C)sc3ncn(CC(=O)N4CCOCC4)c(=O)c23)cc1C	2.1	-4	3	4	-1	7	.
COc1ccc(OC)c(S(=O)(=O)N2CCC(C(=O)NCc3ccncc3)CC2)c1	2.3	-13	9	11	1	-13	3818
CC(C)OC(=O)CSc1nnc(-c2ccc(C(C)(C)C)cc2)n1N	-0.3	-10	-1	-5	-4	-4	?
Later entries:
SMILES	RN4220 kill	BJeLR viability	Sa ugtP lethal	Mtb hypoxia inh	Mtb hypoxia inh growth	PrP 5UTR inh	Bead autofluor
Cc1nc(SCC(=O)O)n[nH]1	6.2	-12	-4	7	2	-18	4335
CC1CC(=O)N(CC(=O)Nc2ccc(F)cc2)c2ccccc2S1(=O)=O (configuration not stated)	2.8	4	9	5	5	0	5937
O=C(NCc1ccccc1Cl)c1cccc2c1C(=O)c1ccc(-c3ccc(OC(F)(F)F)cc3)cc1S2(=O)=O	17	.	12	1	-2	-3	3771
O=C(CC1C(=O)N(CCc2ccccc2)CC1Cc1ccccc1)Nc1ccccc1 (configuration not stated)	2.7	.	-2	11	9	.	.
CCc1nnc(NC(=O)CCN(c2ccc(C)cc2)S(=O)(=O)c2ccccc2)s1	5.3	-7	18	9	3	-17	2148
COc1ccc(C=NNC2=NS(=O)(=O)c3ccccc32)cc1OC(C)=O	-1.4	.	-5	13	8	.	.
CCN(CC)CCC(=O)c1ccc(F)cc1	1.3	-5	-5	7	5	6	3994
Cn1c(CCN2CCN(c3ccc(F)cc3)CC2)nc2cc(NC(=O)c3ccco3)ccc21	5.1	6	9	13	12	-23	24006*
Cc1ccc(N2C(=O)c3ccccc3C2Nc2ccc(S(=O)(=O)N3CCCCC3)cc2)nc1 (configuration not stated)	-16	7	-11	-3	13	-5	6594
C/C(C=NNC(=O)c1cccnc1)=C\c1ccco1	1.8	.	13	5	-5	.	.
O=C(Cc1ccccc1)Nc1ccc(N2CCCC2)cc1	-3.8	0	4	.	.	-11	3816
S=C1NC2=C(CCCC2)C2(CCCCC2)N1	-1.1	1	0	-1	3	-17	3131
CCS(=O)(=O)N1Cc2ccccc2CC1C(=O)Nc1nc2c(C)cccc2s1 (configuration not stated)	.	6	.	.	.	-18	7742
COc1ccc(CNCc2ccncc2)cc1OC	2.1	3	14	3	7	-15	4174
COc1cccc(NC(=O)CC2Oc3ccccc3NC2=O)c1 (configuration not stated)	3.6	-6	0	1	1	-6	3499
C/C(=N/NC(=O)c1cn(-c2cccc(C)n2)cn1)c1ccc(C)cc1	.	5	.	.	.	-5	4078
COc1cc(/C=C2\N=C(C)OC2=O)cc(Cl)c1OC(C)=O	2.0	11	1	5	4	-16	3692
O=C(NCCc1csc(-c2ccccc2)n1)c1cccs1	4.3	8	4	2	-1	1	4501
O=C(CC1C(=O)NCCN1CC(c1ccccc1)c1ccccc1)NCCc1cn[nH]c1 (configuration not stated)	1.9	9	5	0	4	-24	2268
COc1ccccc1CNC(=O)C1Cc2ccccc2C(=O)O1 (configuration not stated)	0.4	-2	5	-10	0	0	2571
OCC[C@@H]1C[C@@H](O)[C@H](O)[C@@]2(CCc3ccccc3CO2)O1	.	7	.	.	.	-45	4125
S=C1CN=C(c2ccccc2)c2cc(Cl)ccc2N1	3.2	-1	-10	-5	3	8	4443
COc1ccc2cnn(-c3ccccc3C)c(=O)c2c1OC	-0.5	-2	3	11	-1	-10	3912
CCc1ccc([C@@H]2CC=C(C(=O)O)[C@H](c3ccc(C(C)(C)C)cc3)N2S(=O)(=O)c2ccc(C)cc2)cc1	6.4	.	69	.	.	-2	3421
CCN(C[C@H]1N[C@@](CC)(C(=O)OC)[C@H]2C(=O)N(Cc3ccccc3)C(=O)[C@@H]12)C(=O)C1CCCCC1	0.6	.	0	1	-9	-9	3035

Three of the compounds above, as labelled records:
> Cc1cccc(C)c1NC(=S)N(CCc1ccncc1)C(C)C
  RN4220 kill: 5.3 | BJeLR viability: 8 | Sa ugtP lethal: 8 | Mtb hypoxia inh: 9 | Mtb hypoxia inh growth: 10 | PrP 5UTR inh: -18 | Bead autofluor: 4507

> CC1CC(=O)N(CC(=O)Nc2ccc(F)cc2)c2ccccc2S1(=O)=O (configuration not stated)
  RN4220 kill: 2.8 | BJeLR viability: 4 | Sa ugtP lethal: 9 | Mtb hypoxia inh: 5 | Mtb hypoxia inh growth: 5 | PrP 5UTR inh: 0 | Bead autofluor: 5937

> COc1ccc2cnn(-c3ccccc3C)c(=O)c2c1OC
  RN4220 kill: -0.5 | BJeLR viability: -2 | Sa ugtP lethal: 3 | Mtb hypoxia inh: 11 | Mtb hypoxia inh growth: -1 | PrP 5UTR inh: -10 | Bead autofluor: 3912

Further results follow.
SMILES	RN4220 kill	BJeLR viability	Sa ugtP lethal	Mtb hypoxia inh	Mtb hypoxia inh growth	PrP 5UTR inh	Bead autofluor
CCOC(=O)C1CCCC(NS(=O)(=O)c2ccc(NC(C)=O)cc2)C1 (configuration not stated)	-2.3	-5	-3	-4	9	-17	8737
Clc1ccc(CNCCc2ccc3c(c2)OCO3)cc1	4.3	-2	17	0	7	-22	3787
CCOc1cc(C)ccc1OCc1nnc(SCC(=O)Nc2cccc(C(=O)O)c2)n1-c1ccccc1	1.2	-5	11	20	11	-18	3428
O=C(c1cccc(S(=O)(=O)N2CCOCC2)c1)N1CCC(Cc2ccccc2)CC1	1.2	.	10	20	22	-11	6276
c1ccc(CSc2ncnc3sccc23)cc1	13	-12	22	8	3	-8	2216
O=C(CCc1ccccc1)Nc1ccc(S(=O)(=O)N2CCOCC2)cc1	0.1	-7	3	11	-3	-9	4024
CCc1cccc(C)c1NC(=O)CN1C(=O)c2ccccc2S1(=O)=O	1.0	-1	2	.	.	-45	5496
CCOC(=O)c1nnsc1Nc1ccc(C)c(C)c1	2.4	.	-13	-3	6	-44	4195
CCCS(=O)(=O)c1nc(S(=O)(=O)c2ccc(C)cc2)c(NCCN2CCOCC2)s1	4.5	6	3	9	7	4	?
O=C(O)COc1ccccc1C=NNC(=O)c1ccc2c(c1)OCCO2	2.0	.	-1	-1	-1	.	.
O=C(CC(C(=O)O)c1cccc(Cl)c1Cl)c1ccccc1 (configuration not stated)	28	11	5	-1	-4	-26	3859
O=C(CNC(=O)c1ccccc1F)N/N=C/c1ccco1	.	5	.	.	.	-13	4205
COc1ccc(/C=C(/NC(=O)c2ccccc2)C(=O)N2CCCCC2)cc1OC	-4.3	1	-11	-9	4	-13	.
CN1/C(=C/C(=O)c2nc(S(C)(=O)=O)ncc2Cl)C(C)(C)c2ccccc21	.	15	.	.	.	-28	10014
Cc1ccc(C(C(=O)NC2CCCC2)N(C(=O)c2csnn2)C2CCCC2)o1 (configuration not stated)	-1.9	5	-4	5	10	-4	21439*
NC(=S)NN=Cc1coc2ccc(Cl)cc2c1=O	3.2	.	5	-5	-10	.	.
O=C(NN=Cc1c(O)ccc2ccccc12)c1ccc(Cn2cccn2)o1	27	.	5	11	-4	.	.
COC(=O)[C@@]12CCCCN1C(c1ccc(-c3ccc(C(C)=O)cc3)c(OC)c1)C1C(=O)N(C)C(=O)C12 (some centres not stated)	4.0	.	4	-8	2	.	.
Cc1ccsc1C=NNC(=O)CNC(=O)c1cccc([N+](=O)[O-])c1C	4.4	.	1	11	6	.	.
COC(=O)CSc1nc2[nH]ncc2c(=O)[nH]1	2.8	-8	2	5	-1	-32	2462
CCOC(=O)C1=C(C)OC(N)=C(C#N)C1c1cc(SCC)oc1C (configuration not stated)	-0.4	0	3	2	4	-22	4415
CN(Cc1ccc(F)cc1)C(=O)c1cc(S(=O)(=O)N2CCCCC2)ccc1N1CCOCC1	3.5	.	-2	0	2	-7	6684
COc1ccc(C(=NNc2ncnc3ccccc23)C(=O)O)cc1	4.9	.	3	-1	6	.	.
O=[N+]([O-])c1ccc(F)cc1OCc1nc(-c2cccs2)no1	6.0	-5	23	6	2	-112	4228
CN(CC(=O)Nc1ccccc1Cl)C1CCCCC1	-2.2	-7	0	0	-8	-8	3842
(further entries)
SMILES	RN4220 kill	BJeLR viability	Sa ugtP lethal	Mtb hypoxia inh	Mtb hypoxia inh growth	PrP 5UTR inh	Bead autofluor
Cc1cccc(N2C(=O)NC(=O)/C(=C/c3cc4c(cc3[N+](=O)[O-])OCO4)C2=O)c1	0.9	3	6	-8	2	-60	3135
CCOC(=O)c1cc2c(ccn2C)n1CC(=O)N(CC)CC	8.7	2	12	5	6	-27	4378
Cc1cccc(NC(=O)c2nc[nH]c2C(=O)NCC(=O)OC(C)(C)C)c1	4.9	4	3	17	5	-12	4102
CC(C)(C)C(=O)C[n+]1ccccc1	4.0	9	11	6	-1	-3	2797
COCCN(CCOC)S(=O)(=O)c1ccc(C(=O)NCCCN2CCOCC2)cc1	-12	-30	-6	14	17	-31	?
CCOc1ccccc1/C=N\Nc1cnn(Cc2ccccc2)c(=O)c1Cl	.	-2	.	.	.	-11	4555
COCCN(C(=O)CSc1cc(C)c2ccccc2n1)c1c(N)n(CC(C)C)c(=O)[nH]c1=O	2.3	.	4	-6	3	-14	3731
COc1ccc(C(C)NC(=S)NC2CCCCC2)cc1OC (configuration not stated)	0.8	-16	0	-1	4	-13	5887
COc1cc(/C=N/NC(=O)NC2CCCCC2)ccc1O	.	2	.	.	.	-14	4932
Cc1cc(OCCCn2ccnc2)cc(C(C)C)c1	-0.7	-1	3	10	9	-5	4254
COc1ccc(C(C)=O)cc1CN(C)C	1.7	-15	1	8	5	-1	6451
CCN(CC)S(=O)(=O)c1cc(NC(=O)COC(=O)c2c(C)noc2C)ccc1C	-1.6	.	-3	0	-1	-2	6358
COc1ccc(C(=O)COC(=O)CCCC(=O)NC2CCCCC2)cc1	0.9	3	8	7	15	-27	5380
